Rango-impB inh = Rango-importin beta binding inhibition; Q14974; hit rate 0.031% among 340,000; Rango CFP/YFP FRET sensor + importin beta, 45 min; Potency, µM (highest dose often 92.2 µM), for the others: top-dose inhibition of complex formation; active = rising FRET ratio curve, often small or poorly fitted; inconclusive = mostly compound fluorescence or quenching in the first reads; inactive = flat curves in all reads;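 note: potency is the fitted concentration of half-maximal effect; 0% = DMSO wells and 100% = buffer wells lacking importin beta; nearly all actives have a fitted effect of over 15% in size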
Target sequence (Q14974 whole entry, looked up): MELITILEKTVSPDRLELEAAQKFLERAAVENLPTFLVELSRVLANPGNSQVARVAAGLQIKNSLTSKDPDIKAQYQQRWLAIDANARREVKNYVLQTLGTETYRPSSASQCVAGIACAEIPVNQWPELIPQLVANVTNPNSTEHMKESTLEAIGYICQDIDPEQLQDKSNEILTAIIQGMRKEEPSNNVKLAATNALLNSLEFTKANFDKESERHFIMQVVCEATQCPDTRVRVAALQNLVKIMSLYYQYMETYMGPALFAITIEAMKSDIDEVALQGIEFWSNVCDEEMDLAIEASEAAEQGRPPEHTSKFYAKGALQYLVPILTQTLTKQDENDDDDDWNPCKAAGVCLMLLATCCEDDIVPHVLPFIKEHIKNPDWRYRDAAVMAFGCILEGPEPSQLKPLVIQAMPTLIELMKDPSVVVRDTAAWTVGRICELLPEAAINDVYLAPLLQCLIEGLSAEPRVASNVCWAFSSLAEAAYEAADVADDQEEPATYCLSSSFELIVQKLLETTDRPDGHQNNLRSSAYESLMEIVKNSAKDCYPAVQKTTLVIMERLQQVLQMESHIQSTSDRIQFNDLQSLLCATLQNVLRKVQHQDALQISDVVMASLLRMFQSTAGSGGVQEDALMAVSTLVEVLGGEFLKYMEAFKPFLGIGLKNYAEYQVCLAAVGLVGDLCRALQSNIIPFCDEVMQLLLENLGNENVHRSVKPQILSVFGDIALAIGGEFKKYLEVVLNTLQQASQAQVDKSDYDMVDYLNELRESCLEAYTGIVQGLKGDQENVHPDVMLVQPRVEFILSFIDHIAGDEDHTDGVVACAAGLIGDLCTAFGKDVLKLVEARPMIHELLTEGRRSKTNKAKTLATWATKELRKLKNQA
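Inhibition scored from the CFP 486 nm/YFP 530 nm FRET ratio 45 min after adding 0.125 microM importin beta to 50 nM Rango biosensor preincubated 5 min with compound (room temperature, PBS with DTT, Tween-20, BSA). No-importin wells as positive control.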
Rango release inh = inhibition of RanGTP-driven Rango-importin beta dissociation; O95149+P62826; Biochemical FRET Rango-importin beta, RanGTP-induced dissociation; Potency, µM (series often up to 46.1 µM), without a hit: at the top dose activity change, negative = inhibition; hit rate 0.071% among 340,000; AID 540253; active means falling FRET ratio curve, often poorly fitted, with flat reads before Ran was added; inconclusive means other falling curves, or compound fluorescence or quenching; inactive means flat or rising ratio curve;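 note: potency is the fitted concentration of half-maximal effect; % of control where 0% means no effect; nearly all actives have a fitted effect of over 45% in size; -100% = wells without RanGTP and RCC1; the record marks most hits as doubtful in a second field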
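Compounds sat 5 min at room temperature with 0.1 uM Rango biosensor plus 0.25 uM importin beta, then FRET pre-read. RanGTP-RCC1 (0.6 uM Ran, 2mM GTP, 0.2 uM RCC1) added for 45 min, and the CFP/YFP post-read measured blocked complex dissociation.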
GLA inh pH 4.5 = alpha-galactosidase A (human) inhibition, pH 4.5; P06280; purified enzyme, 4-MU-alpha-Gal fluorescence, pH 4.5; activity change, negative = inhibition, % at 105 µM; 230,000 tested, under 10 active; AID 1467; inconclusive = small, poorly fitted or top-dose-only inhibition, or a rising curve; inactive = flat fitted curve, though single readings scatter; no compound was filed as active;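 note: 0% = full activity with enzyme and -100% = basal without enzyme; dose as in the result columns while the protocol names 77 µM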
miR-21 reporter = miR-21 reporter, rising signal | HeLa miR-21 FLuc reporter, luciferase, 48 h | Potency, µM (doses to about 38.3 µM), for inactives: at the top dose reporter change, positive = more light | AID 2288 | 340,000 tested, under 10 active; active = well fitted rising curve with a large enough effect; inconclusive = small, poorly fitted or top-dose-only effect; inactive = no such curve, though single readings can be large or run the other way;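 note: % of control where 0% means no effect; miR-21 action dims this reporter so a rising signal means less miR-21 action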
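Luminescence from a firefly luciferase reporter carrying a miR-21 binding site downstream, stably expressed under a CMV promoter in HeLa cells that make miR-21 endogenously, reports miRNA modulation after 48 h compound exposure up to approximately 40uM final.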
Active calls of the source: *; ? = inconclusive; nt = no result given; & = joins results of further samples.

cpd	Rango-impB inh	Rango release inh	smiles	GLA inh pH 4.5	miR-21 reporter
1	?	?	CN1C(=O)c2cccc(NCCCCCCN3C(=O)c4ccccc4C3=O)c2C1=O	2	0%
2	-1.0%	-18%	O=C(O)c1ccc(-c2ccco2)n1Cc1ccccc1	-3	-2%
3	3.6%	25%	CCN(CC)S(=O)(=O)c1ccc2[nH]c(=O)cc(C(=O)Nc3ccc(C)c(S(=O)(=O)N(CC)CC)c3)c2c1	-10	23%
4	0.3%	9%	Cc1cccc(NC(=O)c2ccccc2OCC(=O)c2ccc(F)cc2)c1	0	-5%
5	nt	nt	CCOc1cc(C(=O)N2CCc3cc(OC)c(OC)cc3C2)ccc1OC(F)F	-3	23%
6	14%	-7%	COc1ccc(C(=O)NCC(=O)N/N=C/c2ccc(C)o2)cc1OC	nt	0%
7	9.3%	6%	CC(=O)c1ccc(N2CCN(S(=O)(=O)c3cccc4nonc34)CC2)cc1	3	0%
8	-2.6%	-5%	CC(C)OC(=O)c1ccc(NC(=O)c2ccccc2)cc1	-9	-27%
9	0.2%	0%	O=C(CSc1ncccc1C(=O)O)c1ccccc1	5	-8%
10	-0.6%	-23%	COC(=O)c1cn(NC(=O)c2ccc([N+](=O)[O-])cc2Cl)c(=O)c2ccccc12	4	2%
11	5.7%	-1%	FC(F)(F)c1nc2ccccc2[nH]1	1	-1%
12	1.4%	0%	COc1cccc(/C=C2\SC(=O)N(CCC(=O)NNC(=O)c3cccc(Cl)c3)C2=O)c1	6	-1%
13	-0.2%	2%	O=C(N/N=C/c1ccc(OC(=O)c2ccc([N+](=O)[O-])cc2)cc1)c1cccnc1	nt	0%
14	0.7%	0%	CC(=O)N1c2ccc(F)c(F)c2C[C@H]1C	nt	nt
15	4.2%	6%	COc1c(C)cccc1C(=O)NCc1ccc2c(c1)OCO2	nt	-14%
16	0.7%	-10%	Cc1ccc(N2CC(C(=O)Nc3ccccc3C(=O)N3CCOCC3)CC2=O)cc1 (stereo not drawn)	nt	0%
17	-4.2%	1%	Clc1ccccc1OCc1nnc(-c2ccccc2)o1	2	-94%
18	-2.4%	7%	C(#CCN1CCOCC1)COCCOC(c1ccccc1)c1ccccc1	0	-2%
19	1.6%	5%	COc1ccccc1Cn1c(/C=C/c2ccccc2)nc2ccccc21	9	-46%
20	-0.2%	-5%	COc1cc(C(=O)O/N=C2\C=CC(=O)C(C)=C2)cc(OC)c1OC	3	9%
21	0.2%	-2%	CCC1CCCCN1C(=O)CSc1nc(N)c(NC(=O)c2ccc(OC)c(OC)c2)c(=O)[nH]1 (stereo not drawn)	6	-2%
22	4.7%	15%	CC(=O)c1cccc(NC(=O)c2cc(-n3cnnc3)ccc2Cl)c1	2	0%
23	-0.2%	6%	COc1cccc(/C=N/Nc2nc3ccccc3n3cnnc23)c1O	-16	-1%
24	0.5%	12%	Cc1ccc(C)c(N2CCN(C(=O)c3cc(S(=O)(=O)N4CCOCC4)cn3C)CC2)c1	nt	-4%

Arranged by the number under Rango-impB inh (largest number first): 3 of the compounds above.
# | molecule | Rango-impB inh
14 | CC(=O)N1c2ccc(F)c(F)c2C[C@H]1C | 0.7%
21 | CCC1CCCCN1C(=O)CSc1nc(N)c(NC(=O)c2ccc(OC)c(OC)c2)c(=O)[nH]1 (stereo not drawn) | 0.2%
8 | CC(C)OC(=O)c1ccc(NC(=O)c2ccccc2)cc1 | -2.6%

In a second layout: 14 of the compounds above
no.	SMILES	Rango-impB inh	Rango release inh	GLA inh pH 4.5	miR-21 reporter
11	FC(F)(F)c1nc2ccccc2[nH]1	5.7%	-1%	1	-1%
12	COc1cccc(/C=C2\SC(=O)N(CCC(=O)NNC(=O)c3cccc(Cl)c3)C2=O)c1	1.4%	0%	6	-1%
13	O=C(N/N=C/c1ccc(OC(=O)c2ccc([N+](=O)[O-])cc2)cc1)c1cccnc1	-0.2%	2%	nt	0%
14	CC(=O)N1c2ccc(F)c(F)c2C[C@H]1C	0.7%	0%	nt	nt
15	COc1c(C)cccc1C(=O)NCc1ccc2c(c1)OCO2	4.2%	6%	nt	-14%
16	Cc1ccc(N2CC(C(=O)Nc3ccccc3C(=O)N3CCOCC3)CC2=O)cc1 (stereo not drawn)	0.7%	-10%	nt	0%
17	Clc1ccccc1OCc1nnc(-c2ccccc2)o1	-4.2%	1%	2	-94%
18	C(#CCN1CCOCC1)COCCOC(c1ccccc1)c1ccccc1	-2.4%	7%	0	-2%
19	COc1ccccc1Cn1c(/C=C/c2ccccc2)nc2ccccc21	1.6%	5%	9	-46%
20	COc1cc(C(=O)O/N=C2\C=CC(=O)C(C)=C2)cc(OC)c1OC	-0.2%	-5%	3	9%
21	CCC1CCCCN1C(=O)CSc1nc(N)c(NC(=O)c2ccc(OC)c(OC)c2)c(=O)[nH]1 (stereo not drawn)	0.2%	-2%	6	-2%
22	CC(=O)c1cccc(NC(=O)c2cc(-n3cnnc3)ccc2Cl)c1	4.7%	15%	2	0%
23	COc1cccc(/C=N/Nc2nc3ccccc3n3cnnc23)c1O	-0.2%	6%	-16	-1%
24	Cc1ccc(C)c(N2CCN(C(=O)c3cc(S(=O)(=O)N4CCOCC4)cn3C)CC2)c1	0.5%	12%	nt	-4%

The list goes on.
cpd	Rango-impB inh	Rango release inh	smiles	GLA inh pH 4.5	miR-21 reporter
25	2.7%	-2%	O=C(O)/C=C/C(=O)NC1CCC(CC2CCC(NC(=O)/C=C/C(=O)O)CC2)CC1 (stereo not drawn)	12	2%
26	0.5%	14%	Cc1cc(S(=O)(=O)Nc2ccc(C(=O)NCc3cccnc3)cc2)ccc1F	nt	nt
27	1.4%	11%	C/C=C\C(=O)Nc1cccc(C2=NOC3(C2)C[C@@H](C(N)=O)N(C(=O)c2ccc(Cl)cc2)C3)c1 (stereo partly drawn)	4	9%
28	-5.2%	-8%	COc1ccc(CCNC(=O)CSc2nc(-c3ccco3)cc(C(F)(F)F)n2)cc1OC	6	0%
29	-0.7%	-11%	CCC1(c2ccc(F)cc2)NC(=O)N(CC(=O)c2ccc[nH]2)C1=O (stereo not drawn)	-4	-6%
30	-3.6%	-2%	CCOc1ccccc1CNCc1ccc(F)cc1	-4	-3%
31	9.2%	24%	Cc1ccc(C2N=C(N)Nc3nc4ccccc4n32)cc1 (stereo not drawn)	5	-3%&-9%
32	-2.3%	25%	CCOC(=O)N/N=C/c1ccc(OC)c(O)c1	8	-33%
33	-2.2%	-10%	Cc1onc(-c2c(Cl)cccc2Cl)c1CO/N=C(\C#N)c1c(Cl)cccc1Cl	-15	-6%
34	?	-9%	COc1ccc(N(CC(=O)N2CCN(Cc3ccccc3)CC2)S(C)(=O)=O)cc1	nt	0%
35	3.9%	0%	COc1ccc(C(=O)NC2CCCCCC2)cc1S(=O)(=O)N1CCCC1	6	-18%
36	3.3%	0%	CCOC(=O)C1=C(COC(=O)/C=C/c2cc(Br)ccc2F)NC(=O)NC1C (stereo not drawn)	nt	nt
37	2.9%	-2%	CN(C)Cc1c(C(=O)N/N=C/c2ccccc2OCc2ccc(F)cc2)nnn1-c1nonc1N	nt	7%
38	5.2%	-4%	CCOC(=O)c1cnn(Cc2cccc(Cl)c2)c1C	16	0%
39	-0.8%	0%	CCOC(=O)c1cnc(NCc2ccccc2)nc1C	2	-59%
40	6.8%	15%	Cc1noc2ncnc(Oc3ccc(Cl)cc3Cl)c12	-10	-1%
41	0.9%	-8%	Cc1cc2nnc(SCC(=O)Nc3cc(S(=O)(=O)N4CCOCC4)ccc3Cl)n2c2ccccc12	-8	-5%
42	6.7%	0%	Cc1cc(C)c(C)c(S(=O)(=O)NNC(=O)c2cccc(S(=O)(=O)N3CCOCC3)c2)c1C	1	-5%
43	-2.2%	5%	COCCn1c(SC2CCOC2=O)nc2ccccc2c1=O (stereo not drawn)	-2	-1%
44	-7.9%	52%	CCOC(=O)N1CCC(N2Cc3cccc(C(=O)N4CCN(c5cccc(C)c5C)CC4)c3C2=O)CC1	6	25%
45	-3.0%	-2%	Cn1c(-c2sc3cc(C(F)(F)F)cnc3c2-c2cccnc2)n[nH]c1=S	-5	-6%
46	-0.8%	-5%	Cc1ccc(NC(=O)c2ncn(CCCN3CCN(c4ccccn4)CC3)n2)cc1C	nt	nt
47	-0.2%	-15%	Cc1noc(C)c1NC(=O)Nc1cccc2c1O[C@H](CN(C)C(=O)Nc1ccc3c(c1)OCO3)[C@@H](C)CN([C@H](C)CO)C2=O	nt	nt
48	0.1%	-3%	COCCNc1nc(NCc2ccccc2)c2cnn(C)c2n1	nt	-9%
49	6.8%	35%	COc1ccc(OC)c2[nH]c(=O)c(CCNS(=O)(=O)c3ccc(C)cc3)cc12	?	-4%
50	0.0%	-11%	O=C(c1ccccc1)c1ccc(OCC(O)CN2CCOCC2)cc1 (stereo not drawn)	nt	nt
51	-3.6%	-1%	O=C(Cc1n[nH]c(=O)c2ccccc12)Nc1cc(C(F)(F)F)ccc1-n1cncn1	nt	nt
52	0.6%	9%	Cc1ccc(OCC(=O)Nc2c(C)nn(-c3ccccc3)c2C)c(Br)c1	nt	nt
53	1.1%	-6%	CCCCC(c1nnnn1CS(=O)(=O)c1ccc(C)cc1)N1CCC(C(N)=O)CC1 (stereo not drawn)	nt	6%
54	0.5%	-12%	Cc1cc(OCC(=O)Nc2ccccc2C(N)=O)c2c(C)cc(=O)oc2c1	nt	1%
55	0.5%	1%	C[C@]12CC(O)C3C(CCC4=CC(=O)CC[C@@]43C)C1CCC2c1csc(-c2ccccc2)n1 (stereo partly drawn)	9	3%
56	0.3%	-3%	COc1cc(Br)c(C(=O)c2nccc3cc(OC)c(OC)cc23)cc1OC	nt	-6%
57	-2.4%	5%	C/C(CC(=O)Nc1ccc(Cl)c(C(F)(F)F)c1)=N\NC(=O)c1cccc(O)c1	-5	18%
58	-4.7%	-2%	CCCCn1c(N)c(N(CC(C)C)C(=O)CSc2n[nH]c(-c3ccc(C)cc3)n2)c(=O)[nH]c1=O	nt	nt
59	0.7%	?	Cc1ccccc1N1C(=O)C2C3CC(=O)C(c4ccccc43)C2C1=O (stereo not drawn)	-3	-1%
60	0.3%	-2%	O=C(CC1C(=O)NCCN1Cc1cccc(Oc2ccccc2)c1)NCc1cccnc1 (stereo not drawn)	6	0%
61	0.3%	-4%	CCc1ccc(NC(=O)CCNS(=O)(=O)c2cccc3nsnc23)cc1	-1	-1%
62	2.5%	1%	CC(=O)c1ccc(NC(=S)Nc2ccc(N3CCOCC3)cc2)cc1	1	-13%
63	-1.9%	-5%	O=C1N(Nc2ccccc2)C(c2ccc(Br)cc2)C12CCCCC2 (stereo not drawn)	-1	-2%
64	1.2%	-17%	O=C(C(c1ccccc1)c1ccccc1)N1CCN(Cc2ccc(Br)cc2)CC1	-2	1%
65	-2.5%	-20%	Cc1cccc(NC(=O)CC2S/C(=N/c3nccs3)N(C)C2=O)c1 (stereo not drawn)	3	-6%

High-throughput results: PubChem, National Center for Advancing Translational Sciences (NCATS)

Some of the compounds tested; count on the stated rates, not on these rows.
